Cruzain noTriton – cruzain (T. cruzi) inhibition without detergent; 200,000 tested, 2.3% active; purified cruzain, Z-FR-AMC fluorescence, no detergent; P25779; Potency, µM, for the others: max response, negative = inhibition, usual class: inhibitors; AID 1476;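 also: plate controls were enzyme without inhibitor for no effect and buffer without enzyme for full effect; nearly all actives have a fitted effect of over 40% in size; top concentration of the series not given in the record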
Target sequence (P25779 123-467 limits assumed): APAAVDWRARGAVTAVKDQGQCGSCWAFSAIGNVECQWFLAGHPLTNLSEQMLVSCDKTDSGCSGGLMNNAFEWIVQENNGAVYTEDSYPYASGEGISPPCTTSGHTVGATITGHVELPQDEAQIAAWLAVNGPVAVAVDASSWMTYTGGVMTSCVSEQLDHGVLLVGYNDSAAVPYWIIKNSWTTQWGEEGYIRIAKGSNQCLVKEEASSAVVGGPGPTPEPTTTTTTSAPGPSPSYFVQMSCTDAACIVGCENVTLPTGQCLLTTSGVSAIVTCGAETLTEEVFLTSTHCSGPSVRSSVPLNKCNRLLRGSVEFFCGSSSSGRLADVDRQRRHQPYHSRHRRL
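Purified cruzain at 1.5 nM, pre-incubated 15 min with compound at room temperature in 100 mM sodium acetate pH 5.5, 5 mM DTT, 0.00005% Triton X-100. Reaction started with 2 uM Z-FR-AMC; AMC fluorescence increase over 60 s gives rate.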
LASV entry inh – inhibitors of Lassa virus binding or cell entry; Lassa virus pseudotype entry inhibition, cell reporter; control for the full effect not named in the record; Potency, µM (doses to about 37.9 µM), for inactives: top-dose activity change, negative = inhibition, actives largely listed as inhibitors; 300,000 tested, 1.2% active; active means well fitted inhibition curve with a large enough effect; inconclusive means small, poorly fitted or top-dose-only effect, or effect the other way; inactive means flat fitted curve, though single readings scatter; tested in HEK293 cells; also: % is scaled to controls: 0 for no effect and ±100 for the full control effect; nearly all actives have a fitted effect of over 50% in size; luciferase read-out
MARV entry inh – blocks Marburg virus binding to or entry into cells; Potency, µM (series often up to 37.8 µM), without a hit: top-dose activity change, negative = inhibition, most hits filed as inhibitors; Marburg virus pseudotyped entry inhibition, cell reporter; control for the full effect not named in the record; about a third of the inactives were read at about 46 µM; 300,000 tested, 1.8% active; active = well fitted inhibition curve with a large enough effect; inconclusive = small, poorly fitted or top-dose-only effect, or effect the other way; inactive = flat fitted curve, though single readings scatter; tested in HEK293 cells; about a fifth of its hits are not listed in these tables; also: % is scaled to controls: 0 for no effect and ±100 for the full control effect; luciferase read-out
Cruzain inh Det – blocks cruzain activity in presence of Triton detergent; purified cruzain, Z-FR-AMC fluorescence, 0.01% Triton; P25779; 200,000 tested, 0.43% active; Potency, µM, inactives show max response, negative = inhibition, most hits filed as inhibitors;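 also: plate controls were neutral wells for no effect and buffer without enzyme for full effect; nearly all actives have a fitted effect of over 40% in size; top concentration of the series not given in the record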
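Z-FR-AMC hydrolysis (2 uM substrate) by cruzain (1.5 nM) monitored kinetically at ex 360/em 450 nm after 15 min room-temperature compound exposure; 0.01% Triton X-100, pH 5.5, 5 mM DTT.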
RE007 growth inh – less growth of the S. pombe RE007 Vpr strain. AID 651644. 360,000 tested, 0.21% active. Potency, µM (series often up to 92.2 µM), for inactives: top-dose activity change, negative = less growth. S. pombe RE007 Vpr strain, BacTiter-Glo ATP luminescence, 24 h; control for the full effect not named in the record; active = well fitted falling curve with a large enough effect; inconclusive = small, poorly fitted or top-dose-only effect; inactive = no such curve, though single readings can be large or run the other way;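 also: % is scaled to controls: 0 for no effect and ±100 for the full control effect; nearly all actives have a fitted effect of over 50% in size; the assay follows cell death caused by Vpr and the record does not say whether a fall means rescue or toxicity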
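Fission yeast RE007 carrying one integrated HIV-1 vpr copy, seeded at OD 0.01 in PMG+AL medium with 23 nL pinned compound. Grown 24 h at 30 degrees; viability read by BacTiter-Glo luminescence after 5 min.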
SARS PLP yeast – inhibitors of SARS-CoV papain-like protease in yeast; AID 485353; 330,000 tested, 0.19% active; Potency, µM (series often up to 32.9 µM), without a hit: top-dose activity, positive = growth rescue; S. cerevisiae expressing SARS-CoV PLpro, growth rescue; control for the full effect not named in the record; active means well fitted rising curve with a large enough effect; inconclusive means small, poorly fitted or top-dose-only effect; inactive means no such curve, though single readings can be large or run the other way; also: 0% is about no effect; nearly all actives have a fitted effect of over 55% in size; growth read by luminescence after 48 h
StopGo reporter – lowers the luciferase signal of an FMDV 2A StopGo reporter | human cells with a luciferase reporter of 2A StopGo recoding; control for the full effect not named in the record | 410,000 tested, 1.2% active | Potency, µM (highest dose often 57.9 µM), for inactives: at the highest dose signal change, negative = less light; active = well fitted falling curve with a large enough effect; inconclusive = small, poorly fitted or top-dose-only effect; inactive = no such curve, though single readings can be large or run the other way; tested in HEK293T cells; also: % is scaled to controls: 0 for no effect and ±100 for the full control effect; nearly all actives have a fitted effect of over 45% in size; luciferase light after 4 h
NS1 inh – influenza NS1 inhibition | S. cerevisiae slowed by influenza A NS1, growth recovery by OD600 | Potency, µM (top dose mostly 46.1 µM), inactives show top-dose activity, positive = more growth | 270,000 tested, 0.4% active; active means well fitted rising curve with a large enough effect; inconclusive means small, poorly fitted or top-dose-only effect; inactive means no such curve, though single readings can be large or run the other way; also: nearly all actives have a fitted effect of over 50% in size
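In this qHTS, NS1 from influenza A is expressed in budding yeast, where it slows growth. Cells are switched from glucose to 2% galactose medium (pH 6.0, -URA), treated with compound, and growth recovery is read at OD600.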
* hit, by the source's call; ? = inconclusive; / = not tested or not shown; & = joins results of further samples; [ ] = another dose, or the depositor's remark. Unless noted, calls follow the shape of the dose curve; as a rule, active = well fitted curve in the direction sought with a large enough effect; inconclusive = small, poorly fitted or top-dose-only effect, or another doubt; inactive = no such curve, though single readings can be large; an effect the other way counts as inactive or inconclusive. Potency is read from the fitted curve at half-maximal effect.

no. | mol | Cruzain noTriton | LASV entry inh | MARV entry inh | Cruzain inh Det | RE007 growth inh | SARS PLP yeast | StopGo reporter | NS1 inh
1 | CN1C2CCC1CC(NC(=O)c1nn(C)c3ccccc13)C2 (centres undefined) | -1% | / | 12%&12%&12% | -4.8% | / | / | / | -3%
2 | CCOc1ccccc1/C=N/Nc1nc2ccccc2o1 | / | -2% | 1%[46.1 µM] | / | -5% | -5% | 6% | -5%
3 | CCCc1c(C)nc2c(OC)cccc2c1SCC(=O)O | / | 3% | 3% | / | -13% | 1% | -12% | /
4 | COC(=O)C1CCN(S(=O)(=O)c2c(C)n(C)c(=O)n(C)c2=O)CC1 | -9% | / | / | -1.2% | 2% | -2% | -15% | ?
5 | O=C(NN=Cc1ccc(N(CCCl)CCCl)cc1Cl)c1cccnc1 | / | ? | 1.6µM* | / | -26% | / | -27% | /
6 | NC(=O)CC(NC(=O)Cc1cccc2ccccc12)c1ccc(NCCc2ccc(F)cc2)c([N+](=O)[O-])c1 (centres undefined) | / | / | / | / | -8% | 2% | -5% | 4%
7 | COC(=O)C1CN(S(=O)(=O)c2ccccc2)CCN1S(=O)(=O)c1ccccc1 (centres undefined) | 1% | -3% | -20% | -0.2% | 3% | 3% | -6% | -6%
8 | COc1ccc(C(=O)OCC(=O)NC2CC2)cc1S(=O)(=O)N(C)Cc1ccccc1 | / | ? | ? | / | -12% | 2% | 1% | /
9 | COCCNC(=O)/C(C#N)=C/C=C/c1ccccc1 | / | -3%[46.1 µM] | ? | / | 2% | 1% | 13% | /
10 | Cc1[nH]c(=O)[nH]c1C(=O)CCCCC(=O)OCC(=O)Nc1ccccn1 | -7% | 2% | ? | 1.5% | -12% | 0% | -21% | 5%
11 | Cc1ccc(C23CC4CC(CC(C(=O)NC(C)C)(C4)C2)C3)cc1 | / | -18% | ? | / | -4% | 1% | ? | -17%
12 | O=C(NC(=S)Nc1ccccc1O)c1ccc(Cl)cc1Cl | / | -8%[46.1 µM] | -9%[46.1 µM] | / | ? | -6% | 29% | -87%
13 | O=C(Cc1ccccc1)CC1(O)C(=O)Nc2ccccc21 (centres undefined) | -4% | 20% | -9% | -3.7% | 4% | 4% | -16% | -4%
14 | Cc1c(/C=N\NC(=O)c2cccc(F)c2)cnn1C | -10% | 13% | 29% | -6.4% | 9% | ? | 26% | 1%
15 | CCOC(=O)c1c(CN2CCOCC2)oc2ccc(OC)cc12 | -6% | 0% | -2%&-2% | 2.7% | -11% | -3% | -21% | -12%
16 | COc1ccc(-n2c(N)c(-c3nc4ccccc4n3C)sc2=S)cc1 | ? | ? | ? | -2.7% | 7% | -2% | 7% | 3%
17 | CCn1c(O)c(C(=O)CC2NCCc3ccccc32)c(=O)n(CC)c1=S (centres undefined) | ? | ? | -22% | -3.0% | 3% | -4% | -10% | -31%
18 | COc1cccc(C(=O)Nc2ccc(S(=O)(=O)NCc3ccco3)cc2)c1 | -7% | 8% | 5% | -3.8% | -2% | 1% | 45%[activator] | -1%
19 | CC(NC(=O)c1ccco1)C(=O)OC(C)C(=O)NCc1ccccc1 (centres undefined) | / | 0% | -2%[46.1 µM] | / | 5% | 0% | -3% | /
20 | O=c1oc2cc(O)ccc2cc1S(=O)(=O)c1ccccc1 | / | / | / | / | 9% | 19% | 23% | 5%
21 | Cc1cc(OCCCC(=O)N2CCCCC2)cc(C)c1Cl | ? | 5% | 16% | 0.1% | -12% | -5% | -5% | -72%
22 | Cc1ccc(C(=O)NCCNS(=O)(=O)c2ccccc2[N+](=O)[O-])cc1 | / | 29%[46.1 µM] | 0%[46.1 µM] | / | 10% | 7% | 6% | 8%
23 | O=C(Nc1cccc(-c2cn3ccccc3n2)c1)c1cccc(Cl)c1 | -24% | ? | ? | ? | -4% | -20% | ? | -6%
24 | CC(=O)Nc1ccc(S(=O)(=O)N2CCCC2)cc1 | / | / | / | / | 5% | -3% | 4% | -5%
25 | Cc1cc(C(=O)OC(C)C(=O)Nc2cccc(S(=O)(=O)N3CCOCC3)c2)c(C)o1 (centres undefined) | 13% | 0% | -30% | 2.0% | 7% | -2% | 30%[activator] | 11%
26 | CCCc1cc(=O)[nH]c(SCC(=O)c2[nH]c(C)c(C(=O)OCC)c2C)n1 | 6% | 9% | -30% | -3.0% | 12% | 23% | -18% | ?
27 | CCC1=C(OC(=O)N(CC)CC)N2C(=O)OC(=NCCOC)[C@]2(Cc2ccccc2)[C@H]2C1=CC[C@H]1C(=O)N(CC)C(=O)[C@H]12 | ? | / | / | 1.0% | 15% | 5% | -3% | -4%
28 | COc1ccc(NC(=O)COC(=O)c2ccc(N3CCCC3=O)cc2)cc1OC | 2% | -1% | 6% | 2.0% | -1% | 0% | 13% | -8%
29 | O=C(N/N=C/c1ccsc1)c1ccc2ccccc2n1 | / | -18%[46.1 µM] | ? | / | -20% | -11% | 51%[activator] | -3%
30 | c1ccc(COC2CCCN(Cc3nc(-c4cnccn4)no3)C2)nc1 (centres undefined) | / | / | / | / | 18% | 0% | -11% | 11%
31 | COc1ccc(Cn2c(=O)c3oc4ccccc4c3n(Cc3cccc(F)c3)c2=O)cc1 | 8% | -16%[46.1 µM] | / | -2.0% | / | / | -24% | /
32 | Cc1cc(=O)n2[nH]c(N3C(=O)CCC3=O)nc2n1 | 4% | -11% | 10%&10% | -0.8% | 30% | -2% | 12% | 0%
33 | CC(=O)N(c1ccc(C)cc1)C1C=CS(=O)(=O)C1 (centres undefined) | -8% | / | / | 1.0% | 17% | 15% | 0% | 11%
34 | O=C(Oc1ccc2c(-c3ccccc3)cc(=O)oc2c1)c1cccs1 | 6.3µM* | 1%[46.1 µM] | 13% | -5.5% | 1% | -7% | 2% | 16%
35 | CCOC(=O)C1CCCN(Cc2c(C(=O)N3CCOCC3)nc3ccccn23)C1 (centres undefined) | / | -7% | 1%[46.1 µM] | / | 7% | -1% | -9% | -1%
36 | COC(=O)Nc1ccc(S(=O)(=O)n2cnc3ccccc32)cc1 | 0% | ? | 18% | -2.8% | 16% | 4% | 7% | -8%
37 | O=C(O)c1cccc2c3c([nH]c12)CCCC3 | / | / | / | / | -25% | -7% | -14% | -107%
38 | COc1ccc(NC(=O)CCCN2C(=O)C3C4C=CC(C4)C3C2=O)c(OC)c1 (centres undefined) | -3% | -4% | 19% | -3.0% | -7% | 10% | 8% | 1%
39 | COc1cccc(N2C(=NC(=O)C3CCCCC3)SC3CS(=O)(=O)CC32)c1 (centres undefined) | / | -1%[46.1 µM] | ? | / | 5% | 1% | 6% | -6%
40 | COc1ccc(CN2CCN(c3ccc(F)cc3)CC2)c(OC)c1OC | 4% | -9% | ? | -0.4% | -20% | 15% | -11% | 1%
41 | CCn1c(=O)n(CC(=O)Nc2cc(OC)c(OC)c(OC)c2)c(=O)c2ccccc21 | 2% | -1% | -5% | 3.4% | 3% | -5% | 5% | 0%
42 | O=S(=O)(Nc1cccc(-n2cnnn2)c1)c1cc(Br)ccc1Br | / | / | / | / | 11% | 8% | 39%[activator] | -2%
43 | CN(C)C(=O)C[n+]1ccc(C(N)=O)cc1 | / | / | / | / | 4% | 1% | -18% | 2%
44 | COc1cccc(CN2CCNCC2)c1OC | / | ? | ? | / | -5% | ? | 3% | 5%
45 | COc1ccc(NC(=O)CN2CC(C)OC(C)C2)cc1Cl (centres undefined) | / | -10%[46.1 µM] | -15%[46.1 µM] | / | 3% | 0% | -15% | /
46 | Cc1ccc(N2C(=O)NC(=O)/C(=C\c3cc(C)n(-c4sc5c(c4C#N)CCCC5)c3C)C2=O)cc1 | 8% | ? | 2.5µM* | -9.5% | 9% | -9% | ? | -10%
47 | CC(C)(C)NC(=S)N1CCC(C(=O)c2ccc(F)cc2)CC1 | / | / | / | / | 17% | 0% | -4% | 0%
48 | O=c1c2nncn2c2cccnc2n1CCNc1ncc(C(F)(F)F)cc1Cl | / | 12% | -7%[46.1 µM] | / | -8% | 1% | -27% | 3%
49 | CCSc1nnc(NC(=O)c2cccnc2)s1 | -10% | 25%[14.3 µM] | ? | 1.4% | 10% | 9% | 0% | -25%
50 | COc1ccc(-c2nc(SCC(=O)N3CCOCC3)n[nH]2)cc1 | ? | -23% | 7% | -3.1% | -6% | 0% | 13% | -4%
51 | CC(=O)NC(=S)Nc1ccc(NC(=O)c2cccs2)cc1 | -10% | ? | ? | 1.3% | 10% | -16% | 18% | -5%
52 | COc1ccc(S(=O)(=O)N2CCCC2CNC(=O)C(=O)NCc2ccccc2)cc1 (centres undefined) | / | -24% | ? | / | 14% | -4% | -13% | /
53 | CN1C(=O)N(C)C2(c3ccccc3)Nn3c(s/c(=C/c4ccco4)c3=O)=NC12c1ccccc1 (centres undefined) | 19% | -22% | ? | -6.9% | 2% | 0% | 4% | ?
54 | COc1ccc(-n2nc3c(c2NC(=O)c2ccc4c(c2)OCO4)CS(=O)(=O)C3)cc1 | / | / | / | / | 8% | -1% | -1% | 8%
55 | O=C(NCCc1cnccn1)C1CCC(=O)N(Cc2ccc(Cl)cc2)C1 (centres undefined) | / | -2% | 30% | / | 2% | -2% | 26% | 6%
56 | COc1ccc2cc(C(=O)N3CCN(c4ccccc4F)CC3)[nH]c2c1 | / | / | / | / | -3% | 0% | 5% | -6%
57 | COc1ccc(NC(=O)c2cc3c(s2)CCC(C)C3)cc1S(=O)(=O)N1CCOCC1 (centres undefined) | ? | 23µM* | ? | -9.7% | 20% | -6% | 28µM* | ?
58 | CCCOC(=O)Nc1ccc(S(=O)(=O)Nc2ncccn2)cc1 | / | 4% | 23% | / | 40% | 0% | -4% | -3%
59 | Cc1nc2ccccc2c(=O)n1/N=C/c1cccnc1 | -4% | 12% | 28% | -1.3% | 6% | -8% | 27% | -2%
